Ab BasE inh: inhibitors of Acinetobacter baumannii siderophore enzyme BasE; purified BasE, fluorescence polarization binding displacement; inhibition, % (concentration not given with the values); hit rate 0.1% among 84,000; AID 485350;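 active = both replicates above 25% with normal brightness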;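 also: 0% = negative plate control signal and 100% = positive plate control signal; stock transfer was 100 nL into about 30 µL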
LANA-nucl inh: inhibitors of KSHV LANA binding to nucleosomes | FITC-LANA1-23 / chicken nucleosome fluorescence polarization; active compounds read low | hit rate 0.3% among 51,000 | z-score (no concentration beside the values);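 active = both repeat wells score below -2 in polarization z-score versus plate sample wells, excluding overly bright wells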;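 also: 100 nL library stock added to about 30 µL; numbers are from one replicate; some results filed as inactive read as strong as hits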
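System – purified chicken nucleosomes with FITC-labelled LANA N-terminal peptide (1-23) · Amount – 240 nM purified chicken nucleosomes (480 nM peptide binding sites), final · Also added – 50 nM FITC-LANA1-23 probe · Medium – TEN-BT buffer, pH 7.5 · Incubation – compound with peptide–nucleosome mix 10–45 min at room temperature · Detection – fluorescence polarization, ex 480 nm, em 535 nm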
* hit, by the source's call; x = no result given; & = joins results of further samples. Not all compounds are listed (hit frequency here may not be typical).

canonical_smiles	Ab BasE inh	LANA-nucl inh
Cc1ccc(CNC(=O)C2CCC(CNc3nc(=S)[nH]c4ccccc34)CC2)o1 (stereo not given)	-0.3	0.728
CCN1C(=O)N(c2cc(C)ccc2C)C2CS(=O)(=O)CC21 (stereo not given)	-0.6	x
COc1cc2nc(-c3ccc4c(c3)C(=O)N(CC(C)C)C4=O)oc(=O)c2cc1OC	1.2	x
Cc1cc(C(=O)Nc2ccc3c(c2)OCCO3)oc1C	3.1	-0.654
Clc1ccc(-c2nc3c4ccsc4ncn3n2)cc1	x	0.246
CCC(NC(=O)c1ccccc1NC(=O)c1ccco1)C(=O)Nc1ccc(C)cc1 (stereo not given)	-10.0	x
Cn1ncc2c(=O)n(CC(=O)Nc3cccnc3Cl)cnc21	-0.9	x
CCOC(=O)c1oc2ccccc2c1COC(=O)COc1ccccc1OCC	0.9	x
CSc1nncc(-c2ccc(Cl)cc2)n1	1.7	x
CC1(C)CC(=O)C=C(NCCCn2ccnc2)C1	2.1	x

A second format for some results above.
CSc1nncc(-c2ccc(Cl)cc2)n1
  Ab BasE inh: 1.7; LANA-nucl inh: x

CC1(C)CC(=O)C=C(NCCCn2ccnc2)C1
  Ab BasE inh: 2.1; LANA-nucl inh: x

(further entries)
canonical_smiles	Ab BasE inh	LANA-nucl inh
O=C(NC1CCS(=O)(=O)C1)C1CCCC1 (stereo not given)	1.3	x
Cn1c(=O)c2cc(C(=O)N3CCCCC3)sc2c2ccccc21	-2.9	-0.676
CC(C)Cn1c(SCc2ccc(C#N)cc2)nc2ccccc2c1=O	0.9	x
CCOC(=O)c1oc2ccccc2c1COC(=O)c1c(CC)noc1C	0.5	x
Cc1nc(-c2ccccc2)sc1C(=O)/C=C/N(C)C	0.6	-0.642
CCN(CC)C(=O)/C(C#N)=C/c1cc(Br)cs1	-3.6	x
CN(C(=O)c1cn(C)c(=O)cc1C(F)(F)F)c1ccc(Cl)c(Cl)c1	1.1	x
c1ccc(Cc2nc3ccccc3o2)cc1	2.0	-1.02
O=C(Cc1ccc(Cl)cc1)NCCSc1ccccc1	x	-0.187
O=C(O)c1cccnc1C(=O)N1CCc2c([nH]c3ccccc23)C1C(F)(F)F (stereo not given)	1.8	x

4 of the compounds above, with each value named.
> CCOC(=O)c1oc2ccccc2c1COC(=O)c1c(CC)noc1C
  Ab BasE inh: 0.5
  LANA-nucl inh: x

> Cc1nc(-c2ccccc2)sc1C(=O)/C=C/N(C)C
  Ab BasE inh: 0.6
  LANA-nucl inh: -0.642

> CCN(CC)C(=O)/C(C#N)=C/c1cc(Br)cs1
  Ab BasE inh: -3.6
  LANA-nucl inh: x

> CN(C(=O)c1cn(C)c(=O)cc1C(F)(F)F)c1ccc(Cl)c(Cl)c1
  Ab BasE inh: 1.1
  LANA-nucl inh: x

(cont.)
canonical_smiles	Ab BasE inh	LANA-nucl inh
CC1CC(C)CN(S(=O)(=O)c2cccc(C(=O)Nc3ncn[nH]3)c2)C1 (stereo not given)	-0.3	x
Cc1cc(C)n(-c2ccc(C(=O)NCCc3ccc(S(N)(=O)=O)cc3)cc2)n1	1.6	x
CCOC(=O)C1=C(CC)OC(N)=C(C#N)C1c1ccccc1 (stereo not given)	0.9	0.484
COC(=O)C1CN(C(=O)COc2ccccc2OC)c2ccccc2O1 (stereo not given)	-0.3	0.266
COC(=O)c1ccc(/C=N/NC(=O)CO)cc1	0.7	-1.39
Cc1ccc(NC(=O)CCNS(=O)(=O)c2ccc3[nH]c(=O)ccc3c2)cc1Cl	1.0	-0.861
CC1C2CC(C/C2=N\NC(N)=S)C1(C)C (stereo not given)	-4.0	1.04
NC(=O)/C=C/C(=O)Nc1ccccc1Cl	0.7	0.664
N=C1C(c2nc3ccccc3[nH]2)=C(O)C(c2ccccc2)N1c1ccc2[nH]c(=O)[nH]c2c1 (stereo not given)	0.6	x
Cc1cc(C)n2nc(SCc3nc4ccc(Cl)cc4n3CCO)nc2n1	-0.8	x
O=C1N=c2ccccc2=C1c1sc(N2CCCCC2)nc1O	-0.4	x
O=C1OC(c2ccccc2)=C/C1=C/c1ccc(Cl)cc1	2.6	x
CN(C)c1ccc(/C=C2/C(=N)N3N=C(COc4ccccc4)SC3=NC2=O)cc1	15.2	x
Cc1oc(C(=O)O)cc1COc1cccc2ccccc12	6.4	0.015
CCOc1ccc(NC(=O)/C(C#N)=C\c2cc(C)n(C)c2C)cc1	-2.1	0.601
CC1CCCCN1C(=O)c1ccccc1NS(=O)(=O)c1ccc(F)cc1 (stereo not given)	1.7	0.536
O=C(c1cccc(F)c1)N1CCN(C(=O)c2cccc3ccccc23)CC1	0.5	0.0325
Cc1cc(NC(=O)CC(C)C)c(=O)n(Cc2ccccc2F)c1	-5.8	-0.457
NC(=O)C1CC(=O)N(c2ccccc2)C1 (stereo not given)	0.0	-0.747
CCCCn1c(/N=C/c2nc3ccccc3n2C)nc2ccccc21	4.7	1.49
O=S(=O)(c1ccccc1C(F)(F)F)N1CCNCC1	0.8	x
CC(=O)Nc1cccc(F)c1/C(N)=N/OC(C)=O	1.9	0.575
CC(C)CNC(=O)c1cc(-c2cccc(O)c2)on1	1.8	-0.712
c1cc2c(cc1-c1nnc(CC34CC5CC(CC(C5)C3)C4)o1)OCO2	-0.2	0.452
COc1cccc(NC(=O)Nc2nnc(N3CC(C)CC(C)C3)s2)c1 (stereo not given)	-1.2	0.0105
COc1ccc(CCNC(=O)CN2C3CCCC2CC(=O)NC3)cc1OC (stereo not given)	-2.5	0.162
COc1ccc2cc(C(C)C(=O)Nc3cc(Cl)cc(Cl)c3)ccc2c1 (stereo not given)	2.3	x
Nc1cc(N)nc(SCC(=O)NC(=O)NC2CCCC2)n1	-0.2	x
CCCC1=NN2C(=N)/C(=C/c3ccc(OCCOc4ccccc4)cc3)C(=O)N=C2S1	-1.4	x
O=C(Nc1cccc2cccnc12)C1CC(=O)N(C2CCCC2)C1 (stereo not given)	-1.1	x
CCOC(=O)/C=C1\SCC(=O)N1CCOC(=O)c1ccccc1SC	-6.8	x
O=C(c1cnc2sccn2c1=O)N1CCCc2ccccc21	1.0	-1.18
CCN1CCN(C(=O)c2ccc3c(c2)sc2nc(-c4ccc(C)cc4)cn23)CC1	-1.1	-0.0225
O=C1ON=C2C3CC4CC12CC1(C3)C(=O)ON=C41	2.6	-0.772
C#CC(CC)(CC)NC(=O)c1oc2ccccc2c1CSc1nc(C)cs1	0.0	x
Cn1c(=O)c2c(n(C)c1=O)=NC1(CCCCC1)N=2	-1.1	0.564
Cc1oc(-c2ccccc2)nc1CSc1nc2ncccc2[nH]1	8.5	0.152
Cc1ccccc1OC(C)C(=O)N1CCCc2ccccc21 (stereo not given)	-0.7	-0.271
CCNC(=S)N1CCC(C(N)=O)CC1	1.4	-0.651
Cc1nc(/N=C(\NC(=O)c2ccccc2)Nc2ccccc2)[nH]c(=O)c1C	-4.1	1.79
C=CCOC(=O)C1=C(C)NC(SCC(=O)OCC)=C(C#N)C1c1cccs1 (stereo not given)	0.4	0.871
O=C(c1ccc(Cn2c(=S)[nH]c3cc4c(cc3c2=O)OCO4)cc1)N1CCN(c2ncccn2)CC1	0.7	-0.524
COC(=O)c1ccc(CSc2nc3ccc(Cl)cc3[nH]2)o1	0.3	x
CCn1c(COC(=O)CCc2ccc(OC)c(OC)c2)nc2cc(S(=O)(=O)N(C)C)ccc21	0.5	x
Cc1csc(=O)n1CCCC(=O)O	0.3	x
CCOc1ccc(/C=C/C(=O)Nc2cc3c(cc2N2CCCCC2)n(C)c(=O)c(=O)n3C)cc1	1.2	-0.01
Cc1csc(N(C)C(=O)CSc2nnc(COc3cccc4ccccc34)o2)n1	-0.1	0.0415
CN(C)C=Nc1cc(Cl)c(-n2cccc2)cc1Oc1ccc(Cl)cc1	-0.3	x
O=c1[nH]c(Cn2c(-c3cncs3)nc3ccccc32)nc2ccccc12	-6.4	0.585
Cc1c(-c2ccc3ccccc3n2)sc2ncnn12	x	0.111

The list goes on.
canonical_smiles	Ab BasE inh	LANA-nucl inh
CCOC(=O)C1CCCN(C(=O)S(=O)(=O)c2ccc(-c3csc(C)n3)s2)C1 (stereo not given)	2.2	-0.725
Cc1c2c(=O)n(-c3ccccc3)[nH]c2cc(=O)n1CC1CCCO1 (stereo not given)	-1.3	-0.0025
Cc1cccc(OCC(=O)O/N=C(\N)c2ccncc2)c1	2.3	0.059
O=C(NCc1ccccc1Cl)C1CCCN1C(=O)NCc1ccccc1 (stereo not given)	2.0	-1.81
CCN1CCN(C(=O)c2cc3cc(OC)ccc3oc2=O)CC1	2.0	-0.178
CCOC(=O)C1(c2ccc(OC)cc2)CCOCC1	-2.8	1.63
O=C(OCn1nnc2ccccc2c1=O)c1ccc(S(=O)(=O)N2CCOCC2)cc1	-0.9	0.0625
CNC(=O)C1=C(C)NC(=O)NC1c1cccs1 (stereo not given)	-0.3	0.623
O=C(Oc1ccc2c(c1)OCO2)c1ccco1	-0.1	x
CC(=O)NCC(c1cccs1)N1CCc2ccccc21 (stereo not given)	1.7	-1.04
CCOc1cc(N2CCOCC2)c(OCC)cc1NC(=O)CCNS(=O)(=O)c1cc(C)ccc1C	2.3	x
O=S(=O)(Nc1ccc2nc[nH]c2c1)c1ccccc1	2.4	-0.177
CCN(C(=O)CCc1nc(-c2ccccc2F)no1)c1ccc(C)c(C)c1	1.3	-0.081
CCC(C)NC(=O)CSc1nnc(Nc2ccc(C(C)C)cc2)s1 (stereo not given)	3.7	x
Cc1csc(NC(=O)c2ccc(S(=O)(=O)N3CCc4ccccc4C3)cc2)n1	1.5	x
CCOC(=O)Nc1nc2ccc(C)cc2s1	1.5	x
O=C(O)CSc1ccc2c(c1)CCC2	-2.2	x
CC(NC(=S)NCCc1ccc(S(N)(=O)=O)cc1)C12CC3CC(CC(C3)C1)C2 (stereo not given)	1.0	x
COc1ccc(-n2ncc(C(=O)NCc3ccc(-c4cccs4)cc3)c2C)cc1	2.0	x
CC[C@H]1OC(=O)[C@H](C)[C@@H](O[C@H]2C[C@@](C)(OC)[C@@H](O)[C@H](C)O2)[C@H](C)[C@@H](O[C@@H]2O[C@H](C)C[C@H](N(C)C)[C@H]2O)[C@](C)(O)C[C@@H](C)[C@@H]2N[C@@H](COCCOC)O[C@H]([C@H]2C)[C@]1(C)O	2.1	0.871&-0.34
O=C(Nc1cccc(-n2cnnn2)c1)C1CCCN1C(=O)c1cccs1 (stereo not given)	2.9	x
Cc1ccc(S(=O)(=O)N2CCN(C(=O)C3CCC(=O)N3)CC2)cc1 (stereo not given)	-1.9	x
CN(C)C1(CNC(=O)c2ccc3c(c2)SC2=NS(=O)(=O)CCN23)CCCCC1	0.6	x
C#C[C@]1(OC(C)=O)CC[C@H]2[C@@H]3CCC4=C[C@@H](OC(C)=O)CC[C@@H]4[C@H]3CC[C@@]21C	-0.1	-0.42
CC(C)(C)OC(=O)N/N=C1\CCCCc2ccccc21	-3.2	x
CN(C)C(=O)COC(=O)c1cccc(CN2C(=O)c3ccccc3C2=O)c1	-0.1	x
COc1ccc2c(C)cc(SCc3nc4ccccc4c(=O)n3CC#N)nc2c1	0.2	x
CCOC(=O)/C(C#N)=C1\Nc2ccccc2C1=O	-2.9	x
CSc1cccc(NS(=O)(=O)c2ccccc2)c1	-0.7	x
COc1ccc(C2CC(=O)c3cnc(NCCN4CCOCC4)nc3C2)cc1 (stereo not given)	0.7	0.201
CN1C=NC2C1C(=O)N(CCn1c(=O)c3c(ncn3C)n(C)c1=O)C(=O)N2C (stereo not given)	0.2	-1.33
N#CC1C(C#N)N2CCCN2C1c1ccc(Cl)cc1 (stereo not given)	-2.4	-1.24
CCCCS(=O)(=O)Nc1ccc(C(=O)OC(C)C)cc1	-1.0	0.185
CCCn1c(SCc2cc(=O)oc3ccc4ccccc4c23)n[nH]c1=O	3.4	x
CC(Sc1nc2cc(Cl)ccc2c(=O)n1Cc1ccco1)C(=O)N1CCc2ccccc2C1 (stereo not given)	1.0	x
CCCCN1C(=O)c2ccc(C(=O)Nc3c(N)n(CCCC)c(=O)n(C)c3=O)cc2C1=O	-0.6	x
COc1ccccc1NC(=O)N1CCN2C(=O)c3ccccc3C12c1ccccc1 (stereo not given)	2.6	-0.352
CC(OC(=O)c1ccco1)C(=O)Nc1ccc(Cl)cc1 (stereo not given)	1.4	x
CCOc1cc(C(F)(F)F)c(C(=O)N(C)Cc2c(OC)cccc2OC)cn1	-0.5	0.514
Cc1noc(C)c1COC(=O)/C(=C/c1cccs1)c1cccs1	0.9	x
CCc1ccccc1NC(=O)C1CCCN1S(=O)(=O)c1ccc2c(c1)n(C)c(=O)c(=O)n2C (stereo not given)	-12.3	-0.544
CS(=O)(=O)c1ccccc1C(=O)N1CCN(Cc2ccccc2)CC1	2.3	x
CNS(=O)(=O)c1cccc(C(=O)NC2CCCc3ccccc32)c1 (stereo not given)	-1.0	x
